Screening results: PubChem BioAssay, ICCB-Longwood Screening Facility, Harvard Medical School
S aureus helic – blocks Staphylococcus aureus DNA helicase | purified S. aureus helicase, fluorescence unwinding assay; about half of the hits fall short of the stated cut | inhibition, %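 (tested at about 80 µM)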 | actives 0.05% (n = 120,000) | AID 485395;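 active = both duplicates at 50% or more, or one of them with a favoured structure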;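 also: 0% = mean of negative control wells and 100% = mean of positive control wells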
MgrA-DNA mod – modulators of Staphylococcus aureus MgrA DNA binding | fluorescence polarization | inhibition, %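 (about 10 µg/mL by stock and volumes)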 | actives 0.13% (n = 84,000) | AID 602314;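 active = above 50% in either of two replicates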;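 also: 0% = protein plus DNA without compound and 100% = DNA alone without protein; higher means less MgrA bound to DNA so lower polarization; one replicate is shown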
Active calls of the source: *.

How did CCOC(=O)CSc1nc2c(c(=O)[nH]1)C(CC)(C1CCCCC1)Cc1ccccc1-2 (stereo not drawn) do in these assays?
MgrA-DNA mod: 0.3

Results for CC1(C)CC(=O)c2cn3ncnc3nc2C1 ?
S aureus helic: 9.0; MgrA-DNA mod: -4.3

Results for CCCCc1ccc(C(=O)CCC(=O)O)cc1 ?
MgrA-DNA mod: -0.5

Results for O=[N+]([O-])c1cccnc1NCCCn1ccnc1 ?
MgrA-DNA mod: 2.6

What do the screens show for `O=c1[nH]c(CNCCO)nc2ccsc12`?
S aureus helic: 8.0

What do the screens show for `CCC1(C)CC(C(=O)c2ccc(OC)cc2)CCO1` (stereo not drawn)?
S aureus helic: 11.0

Results for Cc1cc(C(=O)C(C)Sc2n[nH]c(N)n2)c(C)n1-c1ccccc1 (stereo not drawn) ?
S aureus helic: 7.0

How did C#CCSc1nc(=O)c2cccnc2n1-c1ccc(Br)cc1 do in these assays?
MgrA-DNA mod: 0.5

What do the screens show for `O=S(=O)(Cc1ccc(Cl)cc1)c1c[nH]c2ccccc12`?
S aureus helic: 11.0

What do the screens show for `COc1ccccc1OC(C)C(=O)NN` (stereo not drawn)?
S aureus helic: -14.0; MgrA-DNA mod: -0.1

What do the screens show for `CC(C)(C)NC(=O)c1cc(Br)cc2c1OCC2`?
MgrA-DNA mod: 4.3

How did O=c1[nH]c(CN2CCSc3ccccc32)nc2ccccc12 do in these assays?
S aureus helic: -11.0

Results for CC(Sc1nc2sc3c(c2c(=O)n1C)CCC3)C(=O)Nc1ccc(Cl)cn1 (stereo not drawn) ?
S aureus helic: -6.0

How did CCN(CC)c1ncnc2ccsc12 do in these assays?
MgrA-DNA mod: 0.9

Results for CCc1c(C)c(C#N)c2nc3ccccc3n2c1-n1ccnc1 ?
S aureus helic: 14.0; MgrA-DNA mod: 1.4

How did CCOc1ccc(C(=O)N(C)Cc2ccc(OC)cc2OC)cc1 do in these assays?
S aureus helic: -2.0

Results for CC(=O)OC1C(OC(C)=O)N(C(C)=O)C(=O)N1C(C)=O (stereo not drawn) ?
S aureus helic: 14.0; MgrA-DNA mod: 0.5

What do the screens show for `OC(COc1ccc2ccccc2c1)Cn1ccnc1` (stereo not drawn)?
S aureus helic: 7.0; MgrA-DNA mod: -0.4

Results for Oc1ccc(NC(=S)NCCc2ccccc2)cc1 ?
S aureus helic: 9.0; MgrA-DNA mod: 0.0

What do the screens show for `O=C(CCC1CCCC1)NCc1ccc2[nH]c3c(c2c1)CCCC3`?
S aureus helic: 12.0; MgrA-DNA mod: 0.1

How did CC(C)c1cc(N)on1 do in these assays?
S aureus helic: -4.0

What do the screens show for `O=C(O)c1ccc2c(c1)C(=O)N(c1cccc(Cl)c1)C2=O`?
S aureus helic: -22.0

How did COc1ccc(-c2oc(/N=C/c3ccccc3)c(C#N)c2-c2ccc(OC)cc2)cc1 do in these assays?
S aureus helic: -6.0; MgrA-DNA mod: 4.6

What do the screens show for `Nc1nc2ccc(-c3nc4ccccc4o3)cc2s1`?
S aureus helic: 9.0; MgrA-DNA mod: 3.7

3 entries picked at random from the list so far, as already listed:
Results for CC(Sc1nc2sc3c(c2c(=O)n1C)CCC3)C(=O)Nc1ccc(Cl)cn1 (stereo not drawn) ?
S aureus helic: -6.0

How did COc1ccc(-c2oc(/N=C/c3ccccc3)c(C#N)c2-c2ccc(OC)cc2)cc1 do in these assays?
S aureus helic: -6.0; MgrA-DNA mod: 4.6

How did CCOc1ccc(C(=O)N(C)Cc2ccc(OC)cc2OC)cc1 do in these assays?
S aureus helic: -2.0

Next entries follow:
How did CCc1cccc(NC(=O)C2CCN(c3nn4c(=O)cc(C)nc4s3)CC2)c1 do in these assays?
S aureus helic: -7.0; MgrA-DNA mod: 1.1

Results for COCCN1Cc2cccc(C(=O)Nc3ccccc3C)c2C1=O ?
S aureus helic: -2.0

Results for CCN1C(=O)C[C@@H](C(=O)NC)[C@@H]1c1ccc(OC)cc1OC ?
S aureus helic: 4.0; MgrA-DNA mod: 1.8

Results for Nc1nc2ccc(Cl)cc2c(-c2ccccc2)c1CN1CCOCC1 ?
S aureus helic: 20.0; MgrA-DNA mod: -4.7

Results for CCOC(=O)C1CCN(C(=O)CSc2nc3ccccc3o2)CC1 ?
S aureus helic: 14.0

What do the screens show for `COc1ccc(C(=O)Nc2cc(C(F)(F)F)ccc2-n2cncn2)cc1`?
S aureus helic: -18.0; MgrA-DNA mod: 0.2

What do the screens show for `O=C1CCCN1CC(O)CS(=O)(=O)c1ccc(Cl)cc1` (stereo not drawn)?
S aureus helic: -13.0

Results for CCCNC(=O)Cn1nc(C)c2sc3ccccc3c2c1=O ?
S aureus helic: 9.0; MgrA-DNA mod: -0.8

How did CCC(=O)Nc1cccc(C(=O)N2CCc3ccccc32)c1 do in these assays?
S aureus helic: 9.0; MgrA-DNA mod: 0.2

Results for CCOC(=O)c1c(C)c(C(=O)NC2CCCCC2)c(C)n1C ?
S aureus helic: -30.0

What do the screens show for `Oc1cnn(-c2ccccc2)c1`?
S aureus helic: -1.0; MgrA-DNA mod: 1.1

How did CCc1c(C#N)c(SCC(=O)c2cc3ccccc3oc2=O)nc2c1CCC2 do in these assays?
MgrA-DNA mod: -0.8

Arranged by molar mass (low to high): some entries from above
What do the screens show for `Oc1cnn(-c2ccccc2)c1`?
S aureus helic: -1.0; MgrA-DNA mod: 1.1

Results for CCN1C(=O)C[C@@H](C(=O)NC)[C@@H]1c1ccc(OC)cc1OC ?
S aureus helic: 4.0; MgrA-DNA mod: 1.8

Results for CCCNC(=O)Cn1nc(C)c2sc3ccccc3c2c1=O ?
S aureus helic: 9.0; MgrA-DNA mod: -0.8

Further results:
Results for CC(=O)OCC(=O)[C@@]1(O)CCC2C3CCC4=CC(=O)C=CC4(C)C3[C@@H](O)C[C@@]21C (stereo partly drawn) ?
MgrA-DNA mod: -0.4

How did O=C1C(=Cc2ccc(C(F)(F)F)cc2)C(=O)c2ccccc21 do in these assays?
MgrA-DNA mod: 27.6

How did O=C(O)/C=C/C(=O)Nc1ccc(C2CCCCC2)cc1 do in these assays?
MgrA-DNA mod: -0.8

How did CSc1nnc(CNC(=O)N(c2ccccc2)c2ccccc2)n1C do in these assays?
S aureus helic: -4.0; MgrA-DNA mod: 0.4

How did CN(CC1COc2ccccc2O1)c1cc(=O)n2cc(Cl)ccc2n1 (stereo not drawn) do in these assays?
S aureus helic: -12.0

Results for N#CC(C(=O)CN1CCCCC1)c1ccccc1 (stereo not drawn) ?
S aureus helic: 7.0; MgrA-DNA mod: 7.3

Results for O=C(O)CNC(=S)N(Cc1cccs1)C1CCCCC1 ?
S aureus helic: 7.0; MgrA-DNA mod: -2.2

How did COc1ccc(CCNC(=O)CSc2cn(Cc3ccc(F)cc3)c3ccccc23)cc1OC do in these assays?
S aureus helic: 14.0; MgrA-DNA mod: 0.3

How did Cc1nc(SCC(=O)N2CCCC2)c2c(=O)n(C)c(=O)n(C)c2n1 do in these assays?
S aureus helic: 0.0

How did Cc1cccc(NC(=O)C(C)(C)C)c1 do in these assays?
S aureus helic: 14.0

How did CC(=O)NCCc1nc2ccc(NC(=O)Cn3nc(C)c4ccccc4c3=O)cc2n1C do in these assays?
S aureus helic: 8.0; MgrA-DNA mod: -0.1

What do the screens show for `Cc1nc2c(c(C)nn2C(C)(C)C)c(C)c1CCC(=O)N(C)Cc1ccccc1`?
S aureus helic: -10.0; MgrA-DNA mod: 2.4

Results for O=C(CSC1=NCCS1)Nc1nnc(-c2ccccc2Cl)s1 ?
S aureus helic: 17.0

How did O=C(NC1CCCC1)c1ccc2c(=O)n3nc(Nc4ccccc4)sc3nc2c1 do in these assays?
S aureus helic: 18.0

What do the screens show for `S=C(Nc1ccc(Cl)cc1)Nc1ccc(-c2csnn2)cc1`?
MgrA-DNA mod: 0.8

Results for O=S(=O)(c1cccs1)n1ccnc1 ?
S aureus helic: -1.0; MgrA-DNA mod: 0.3

Results for COc1cc(NS(=O)(=O)c2cccc(Cl)c2Cl)cc(OC)c1 ?
S aureus helic: 34.0

How did N#CCS(=O)(=O)c1ccc(OC(F)(F)F)cc1 do in these assays?
MgrA-DNA mod: -1.8

How did Cc1nc(Nc2ccccc2)sc1C(=O)c1ccccc1 do in these assays?
MgrA-DNA mod: -1.5

Results for O=c1[nH]c2nonc2nc1Nc1ccccc1F ?
S aureus helic: 2.0; MgrA-DNA mod: 22.7

Results for CC1CN(C(=O)c2ccccc2Cl)CCN1C(=O)c1ccccc1Cl (stereo not drawn) ?
S aureus helic: -4.0

Results for CCN(CC)CCNc1ncnc2c1cnn2-c1ccc(F)cc1 ?
S aureus helic: 1.0

How did CCCCc1ccc(C(NC(=O)CCCn2cnc3c2c(=O)n(C)c(=O)n3C)c2cccs2)cc1 (stereo not drawn) do in these assays?
S aureus helic: 4.0

What do the screens show for `CCOC(=O)c1c(O)[nH]c(N=O)c1SC`?
MgrA-DNA mod: -0.4

How did O=C(c1ccc(NC2=NC3CS(=O)(=O)CC3S2)cc1)N1CCCCC1 (stereo not drawn) do in these assays?
S aureus helic: 8.0; MgrA-DNA mod: 0.0

Results for Cc1ccc(S(=O)(=O)C2(C(=O)N(C)C3CCCCC3)CC2)cc1 ?
S aureus helic: 4.0; MgrA-DNA mod: 1.4

Results for Cc1onc(-c2c(Cl)cccc2Cl)c1NC(=O)O/N=C/c1cccc([N+](=O)[O-])c1 ?
MgrA-DNA mod: 2.4

Results for CC(=O)NC1C(O/N=C2/C(=O)N(CCOc3ccccc3C)c3ccc(C)cc32)OC(CO)C(O)C1O (stereo not drawn) ?
S aureus helic: -2.0

Results for O=C(CN1CCC(NC(=O)Nc2ccccc2-c2ccccc2)CC1)NCc1ccco1 ?
S aureus helic: 14.0; MgrA-DNA mod: -0.1

What do the screens show for `CN(C)c1ccc(-n2nnnc2SCC(=O)c2ccccc2)cc1`?
MgrA-DNA mod: -0.6

Results for CCc1c(C)nc2cc(-c3cc(OC)cc(OC)c3)nn2c1NCCO ?
S aureus helic: 13.0; MgrA-DNA mod: -1.0

Results for Nc1ncnc2c1nc(SCCO)n2Cc1ccccc1 ?
S aureus helic: -9.0

What do the screens show for `c1ccc(CNc2ncnc3sccc23)cc1`?
S aureus helic: 19.0

How did Cc1cc(/C=C2/SC(=O)N(C)C2=O)c(C)n1-c1ccccc1 do in these assays?
S aureus helic: 8.0; MgrA-DNA mod: -1.6

Results for Cc1cc(C(=O)COc2ccc(Br)cc2F)c(C)n1C1CC1 ?
S aureus helic: -3.0

Results for CC(C)C(=O)Oc1ccc2c(=O)c(Oc3ccccc3Br)coc2c1 ?
S aureus helic: -1.0

Results for COC(=O)C1=C(O)/C(=C\c2ccc(Br)cc2)N=C1C ?
S aureus helic: 16.0; MgrA-DNA mod: -0.4

What do the screens show for `O=C(c1ccc(C(=O)N2CCCCCC2)s1)N1CCCCCC1`?
S aureus helic: 6.0; MgrA-DNA mod: -2.5

Results for Cc1cc(CSc2cc(C)c(Cl)cc2C)no1 ?
MgrA-DNA mod: -2.8

What do the screens show for `O=C(NC(c1ccccc1)c1ccccc1)C1CCCO1` (stereo not drawn)?
S aureus helic: -7.0; MgrA-DNA mod: 2.8

How did Cc1oc(C(C)(C)C)cc1-c1cc(NC(=O)c2ccccc2)n[nH]1 do in these assays?
MgrA-DNA mod: -2.5

How did COc1ccc(/C=C/C(=O)Nc2cc(C)[nH]n2)cc1OC do in these assays?
S aureus helic: 12.0; MgrA-DNA mod: 0.4

What do the screens show for `COc1ccc(CCNC(=O)c2snnc2C)cc1`?
S aureus helic: 9.0

Results for COc1ccc(C(=O)OC(C)CN(C)C)cc1 (stereo not drawn) ?
S aureus helic: 12.0; MgrA-DNA mod: -2.5

Results for O=C(Cn1cccc1C(=O)c1ccccc1)NCc1ccc2c(c1)OCO2 ?
S aureus helic: 5.0

What do the screens show for `CCCCc1nnc(NC(=O)CC)s1`?
S aureus helic: 6.0; MgrA-DNA mod: 3.5

Results for CC1CCC(C(C)C)C(OC(=O)COC(=O)c2ccc(O)cc2)C1 (stereo not drawn) ?
S aureus helic: -15.0

How did COc1ccc(CNS(=O)(=O)c2cccc3nsnc23)cc1 do in these assays?
S aureus helic: 11.0

Molecules shown so far that contain a COOH group:
Results for CCCCc1ccc(C(=O)CCC(=O)O)cc1 ?
MgrA-DNA mod: -0.5

What do the screens show for `O=C(O)c1ccc2c(c1)C(=O)N(c1cccc(Cl)c1)C2=O`?
S aureus helic: -22.0

How did O=C(O)/C=C/C(=O)Nc1ccc(C2CCCCC2)cc1 do in these assays?
MgrA-DNA mod: -0.8

Results for O=C(O)CNC(=S)N(Cc1cccs1)C1CCCCC1 ?
S aureus helic: 7.0; MgrA-DNA mod: -2.2

Additional records follow:
Results for CCCCC(CC)Cn1c(=S)[nH]c2c(sc3ccccc32)c1=O (stereo not drawn) ?
S aureus helic: 4.0; MgrA-DNA mod: 3.0

Results for CCCC(C(=O)O)N1C(=O)c2ccccc2C1=O (stereo not drawn) ?
S aureus helic: 8.0

How did OC1(C(F)(F)F)CC(c2ccc3ccccc3c2)=NN1 (stereo not drawn) do in these assays?
MgrA-DNA mod: -1.4

What do the screens show for `Cc1cccc2sc(NC(=O)c3ccncc3)nc12`?
S aureus helic: 12.0

How did COC1CCCCC1Nc1cc(C)ccc1C (stereo not drawn) do in these assays?
S aureus helic: -6.0; MgrA-DNA mod: -4.7

What do the screens show for `Cn1c(=O)c2c(nc(NCc3ccco3)n2C)n(C)c1=O`?
S aureus helic: 3.0; MgrA-DNA mod: 0.1

What do the screens show for `CC(Nc1ccc2c(c1)OCO2)C(=O)Nc1ccccc1` (stereo not drawn)?
S aureus helic: 12.0

How did c1ccc(CN2c3ccccc3-c3nc4ccccc4n3C2c2ccco2)cc1 (stereo not drawn) do in these assays?
S aureus helic: 19.0

These rows are one share of the data; count on the stated rates, not on these rows.
